High-throughput results (PubChem BioAssay)
NS1 inh: influenza NS1 inhibition | actives 0.4% (n = 270,000) | AID 2326 | S. cerevisiae slowed by influenza A NS1, growth recovery by OD600 | Potency, µM (doses to about 46.1 µM), inactives show at the highest dose activity, positive = more growth; active means well fitted rising curve with a large enough effect; inconclusive means small, poorly fitted or top-dose-only effect; inactive means no such curve, though single readings can be large or run the other way; note: nearly all actives have a fitted effect of over 50% in size
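In this qHTS, NS1 from influenza A is expressed in budding yeast, where it slows growth. Cells are switched from glucose to 2% galactose medium (pH 6.0, -URA), treated with compound, and growth recovery is read at OD600.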
SARS PLpro yeast: SARS-CoV PLP inhibition in yeast | S. cerevisiae expressing SARS-CoV PLpro, growth rescue; control for the full effect not named in the record | Potency, µM (doses to about 32.9 µM), inactives show at the highest dose activity, positive = growth rescue | actives 0.19% (n = 330,000) | AID 485353; active means well fitted rising curve with a large enough effect; inconclusive means small, poorly fitted or top-dose-only effect; inactive means no such curve, though single readings can be large or run the other way; note: 0% is about no effect; nearly all actives have a fitted effect of over 55% in size; growth read by luminescence after 48 h
Cruzain inh noDet: inhibitors of Trypanosoma cruzi cruzain without detergent; P25779; purified cruzain, Z-FR-AMC fluorescence, no detergent; Potency, µM, inactives show max response, negative = inhibition, hits mostly inhibitors; actives 2.3% (n = 200,000); AID 1476;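 note: plate controls were enzyme without inhibitor for no effect and buffer without enzyme for full effect; nearly all actives have a fitted effect of over 40% in size; top concentration of the series not given in the record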
Target sequence (P25779 123-467 limits assumed): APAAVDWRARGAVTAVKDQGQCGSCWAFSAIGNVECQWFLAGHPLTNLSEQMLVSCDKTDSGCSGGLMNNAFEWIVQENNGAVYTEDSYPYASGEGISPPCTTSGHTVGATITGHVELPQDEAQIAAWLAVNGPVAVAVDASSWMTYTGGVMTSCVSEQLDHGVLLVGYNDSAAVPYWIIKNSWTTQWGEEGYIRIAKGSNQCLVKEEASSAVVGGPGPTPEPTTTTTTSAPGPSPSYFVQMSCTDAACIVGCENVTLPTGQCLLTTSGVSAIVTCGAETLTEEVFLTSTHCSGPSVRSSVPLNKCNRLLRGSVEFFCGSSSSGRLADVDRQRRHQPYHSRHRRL
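Detergent-free condition (0.00005% Triton X-100) in acetate buffer pH 5.5 with DTT. 1.5 nM enzyme and compound were pre-mixed 15 min, then 2 uM Z-FR-AMC substrate added; reaction progress from fluorescence change between first and third reads (60 s).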
Marburg entry inh: Marburg virus entry inhibition. actives 1.8% (n = 300,000). Marburg virus pseudotyped entry inhibition, cell reporter; control for the full effect not named in the record; about a third of the inactives were read at about 46 µM. AID 540276. Potency, µM (titrated, usually from 37.8 µM), for the others: top-dose activity change, negative = inhibition, usual class: inhibitors; active = well fitted inhibition curve with a large enough effect; inconclusive = small, poorly fitted or top-dose-only effect, or effect the other way; inactive = flat fitted curve, though single readings scatter; tested in HEK293 cells; about a fifth of its hits are not listed in these tables; note: % is set by controls: 0 for no effect and ±100 for the full control effect; luciferase read-out
RE007 growth inh: less growth of the S. pombe RE007 Vpr strain | Potency, µM (titrated, usually from 92.2 µM), for inactives: at the highest dose activity change, negative = less growth | S. pombe RE007 Vpr strain, BacTiter-Glo ATP luminescence, 24 h; control for the full effect not named in the record | actives 0.21% (n = 360,000); active = well fitted falling curve with a large enough effect; inconclusive = small, poorly fitted or top-dose-only effect; inactive = no such curve, though single readings can be large or run the other way;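 note: % is set by controls: 0 for no effect and ±100 for the full control effect; nearly all actives have a fitted effect of over 50% in size; the assay follows cell death caused by Vpr and the record does not say whether a fall means rescue or toxicity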
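Fission yeast RE007 carrying one integrated HIV-1 vpr copy, seeded at OD 0.01 in PMG+AL medium with 23 nL pinned compound. Grown 24 h at 30 degrees; viability read by BacTiter-Glo luminescence after 5 min.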
Cruzain Triton: inhibitors of Trypanosoma cruzi cruzain with detergent; P25779; purified cruzain, Z-FR-AMC fluorescence, 0.01% Triton; Potency, µM, for the others: max response, negative = inhibition, usual class: inhibitors; actives 0.43% (n = 200,000);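 note: plate controls were neutral wells for no effect and buffer without enzyme for full effect; nearly all actives have a fitted effect of over 40% in size; top concentration of the series not given in the record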
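Cysteine protease activity tested under reducing, mildly acidic conditions (100 mM sodium acetate pH 5.5, 5 mM DTT) plus 0.01% Triton X-100. Cruzain 1.5 nM; substrate Z-FR-AMC 2 uM; 15 min compound preincubation at room temperature.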
Lassa entry inh: Lassa virus entry inhibition; Lassa virus pseudotype entry inhibition, cell reporter; control for the full effect not named in the record; Potency, µM (top dose mostly 37.9 µM), inactives show top-dose activity change, negative = inhibition, usual class: inhibitors; actives 1.2% (n = 300,000); AID 540256; active means well fitted inhibition curve with a large enough effect; inconclusive means small, poorly fitted or top-dose-only effect, or effect the other way; inactive means flat fitted curve, though single readings scatter; tested in HEK293 cells; note: % is set by controls: 0 for no effect and ±100 for the full control effect; nearly all actives have a fitted effect of over 50% in size; luciferase read-out
2A StopGo: lowers the luciferase signal of an FMDV 2A StopGo reporter; human cells with a luciferase reporter of 2A StopGo recoding; control for the full effect not named in the record; Potency, µM (highest dose often 57.9 µM), inactives show at the highest dose signal change, negative = less light; actives 1.2% (n = 410,000); active = well fitted falling curve with a large enough effect; inconclusive = small, poorly fitted or top-dose-only effect; inactive = no such curve, though single readings can be large or run the other way; tested in HEK293T cells; note: % is set by controls: 0 for no effect and ±100 for the full control effect; nearly all actives have a fitted effect of over 45% in size; luciferase light after 4 h
* marks the source's active call; other numbers are inactive results; ? = inconclusive; . = not tested or not shown; [ ] = remark or other dose. Unless noted, calls come from the whole dose curve; as a rule, active = well fitted curve in the direction sought with a large enough effect; inconclusive = small, poorly fitted or top-dose-only effect, or another doubt; inactive = no such curve, though single readings can be large; an effect the other way counts as inactive or inconclusive. Potency is the fitted concentration of half-maximal effect.

Molecule | Cruzain inh noDet | 2A StopGo | Marburg entry inh | SARS PLpro yeast | Cruzain Triton | Lassa entry inh | NS1 inh | RE007 growth inh
CCOc1cccc(CC(=O)N2CCc3c([nH]c4ccccc34)C2c2ccccc2)c1OCC (stereo unspecified) | ? | -14% | . | . | 0.0% | ? | . | .
OCc1c[nH]c(=S)n1CCOc1cccc(C(F)(F)F)c1 | . | -17% | . | -2% | . | . | 3% | 10%
O=C(Nc1ccc(N2CCCC2)c(Cl)c1)c1ccc(Br)o1 | 10µM* | 37%[activator] | ? | -1% | -14% | ? | 5% | -6%
COCCn1c(SCc2ccccc2)nc2c1c(=O)[nH]c(=O)n2C | . | -11% | -18%[46.1 µM] | 1% | . | 14%[46.1 µM] | 0% | 15%
COc1ccc(C(=O)NC2CC2)cc1OC1CCN(Cc2cc(C)c(C)cc2C)CC1 | . | -19% | -4% | 6% | . | 8% | -9% | 1%
CSC1=C(C#N)C(c2ccc(C(C)C)cc2)CC(=O)N1 (stereo unspecified) | -5% | -4% | . | 7% | -0.1% | . | 7% | -1%
CC1CCCC(NC(=O)Cc2ccc(Br)cc2)C1C (stereo unspecified) | ? | -13% | -15% | 13% | 25µM* | -28% | -3% | 7%
COc1cccc(/C=N/NC(=O)Cn2nc(C)c([N+](=O)[O-])c2C)c1O | -7% | -6% | ? | 16% | -3.6% | ? | 22% | -12%
CCOC(=O)c1ccc(NC(=O)CN2C(=O)C(=O)N(CC(C)C)C2=O)cc1 | 9% | -3% | 5% | 6% | -4.6% | -1% | 17% | 5%
COc1ccccc1Cn1c(=S)[nH]c2cc(C(=O)N3CCCC3)ccc2c1=O | . | -13% | . | 3% | . | . | 13% | -2%
O=C(CSc1ccccc1)N1CCN(S(=O)(=O)c2ccccc2F)CC1 | . | 0% | 4%[46.1 µM] | -3% | . | ? | -22% | -5%
COc1ccc(CCn2c(C)nc3ccccc3c2=O)cc1OC | . | -18% | . | 1% | . | . | -4% | -22%
c1ccc(Cn2cc(CSc3ccccc3)nn2)cc1 | . | 69%[activator] | . | 0% | . | . | -42% | -4%
Cc1ncc(CN2CCC(CO)(CCOc3ccccc3)CC2)s1 | . | -20% | . | 0% | . | . | -3% | -6%
OCC[C@@H]1C[C@@H](O)[C@H](O)[C@]2(CCCCO2)O1 | 5% | -8% | -3% | 6% | 2.0% | 14% | 0% | 7%
CCc1ccc(/C=C/C(=O)c2cc(Br)ccc(=O)c2O)cc1 | ? | -16% | ? | 24% | -28% | ? | -157% | -28%
O=S(=O)(Nc1cccc2ncccc12)c1cccs1 | 10% | 20µM* | ? | -20% | -4.2% | ? | -74% | -3%
Cc1ccc(O)c(CNc2ccc(S(=O)(=O)Nc3nccs3)cc2)c1 | . | 34%[activator] | 4%[46.1 µM] | 2% | . | -21% | -7% | -4%
CCOc1ccccc1NC(=O)Cn1c(=O)n(CCC(=O)NCc2ccc3c(c2)OCO3)c(=O)c2ccccc21 | 11% | 1% | ? | . | 1.1% | -27%[46.1 µM] | . | .
CCN(CC(=O)Nc1ccc2c(c1)OCCO2)C(=O)C(C)Oc1ccc(F)cc1 (stereo unspecified) | . | 13% | -6%[46.1 µM] | . | . | 12% | . | -5%
CCn1cnnc1SCC(=O)Nc1ccccc1C(=O)NC1CC1 | . | -1% | ? | -1% | . | 11% | . | -14%
Cc1[nH]n(-c2ccccc2)c(=O)c1C(C[N+](=O)[O-])c1ccccc1Cl (stereo unspecified) | -3% | -13% | 35% | -10% | 2.4% | 5% | -79% | 32µM*
Cc1ccc(SCCC(=O)Nc2ccccc2C(=O)N2CCOCC2)cc1 | -8% | -9% | -6% | 15% | -2.6% | 0% | -11% | -4%
O=C(NCCN1CCOCC1)c1ccc2ccccc2n1 | -3% | 44%[activator] | 14% | -3% | -0.5% | 12% | 1% | -7%
CNC(=O)C1CC(=O)N(Cc2ccc3c(c2)OCO3)C(=Nc2ccc(OC)cc2)S1 (stereo unspecified) | ? | . | -9% | 2% | 3.2% | ? | -23% | 2%
O=C(NCc1cccs1)c1cccc(N2CCCC2=O)c1 | -2% | -2% | 1% | 2% | 8.1% | 7% | -1% | -11%
c1ccc(N2CCN(Cc3ccnc4ccccc34)CC2)cc1 | -12% | -4% | ? | 1% | 4.8% | -25% | 0% | -5%
CCc1ccc(NC2=CC(=O)CC(C)(C)C2)cc1 | . | 8% | 1% | -1% | . | 22% | -5% | -1%
O=C(NCC1CCCN(Cc2ccc3nonc3c2)C1)c1ccc(F)cc1 (stereo unspecified) | . | -4% | 13%[46.1 µM] | -2% | . | -13% | 4% | -5%
CC1CCCN(C(=O)Cn2nnc(-c3ccccc3F)n2)C1 (stereo unspecified) | . | 72%[activator] | . | 0% | . | . | 28% | -17%
O=C(CC(=O)Nc1ccc(Cl)c(Cl)c1)N/N=C/c1ccc(O)cc1 | -23% | 0% | -16% | -6% | -15% | -17% | -6% | 2%
CCc1ccc2c(c1)-c1ccccc1S(=O)(=O)N2CC(=O)N1CCCCC1 | -1% | 88%[activator] | ? | . | 0.2% | 18%[46.1 µM] | . | .
O=C(c1ccc2ncsc2c1)N1CCCCC1 | . | -4% | 14%[46.1 µM] | 5% | . | ? | ? | 12%
COc1ccc(NC(=O)CC2C(=O)NCCN2C(=O)c2ccc(Cl)cc2)cc1 (stereo unspecified) | . | -11% | . | 0% | . | . | -4% | 19%
CN(CC(=O)Nc1ccccc1N1CCOCC1)S(=O)(=O)c1ccc(F)cc1 | 6% | 0% | -9%[46.1 µM] | 5% | -1.0% | -22% | -7% | -15%
COC(=O)c1ccc2c(=O)n(CCCCCC(=O)NCCc3ccccc3)c(=O)[nH]c2c1 | 1% | -4% | . | . | 3.0% | 14%[46.1 µM] | . | .
Cc1ccc(OCc2cccc(S(=O)(=O)N(C)C)c2)c([N+](=O)[O-])n1 | . | -3% | 9%[46.1 µM] | 1% | . | 0% | 3% | 7%
COc1ccc(/C=N/n2nnnc2N)cc1OC | . | 5% | ? | 2% | . | -5% | -2% | -15%
CC(=O)Nc1ccc(NC(=O)COc2ccc(-c3ccc(C#N)cc3)cc2)cc1 | . | -12% | ? | 9% | . | 8% | . | -5%
Cc1nc(Nc2ccc(S(N)(=O)=O)cc2)sc1-c1ccccc1 | . | 30% | ? | 1% | . | -9%[46.1 µM] | -1% | -3%
O=C(NCCCc1nc2ccccc2n1Cc1cccc(Cl)c1)c1ccco1 | -9% | ? | ? | . | -8.5% | -7%[46.1 µM] | . | .
Cc1ccc(NC(=O)c2cc(C)n(-c3cccc(C)c3)c2C)cc1 | ? | 10% | 6.5µM* | -55% | -3.0% | 10µM* | 13% | -6%
COc1cccc(CNC(=O)Cc2ccc(OC)c(S(=O)(=O)N3CCOCC3)c2)c1 | . | -13% | 25% | 4% | . | ? | . | 14%
Cc1cc(C)cc(N(CC(=O)NCC2CCCO2)C(=O)CCC(=O)Nc2cc(C)on2)c1 (stereo unspecified) | -1% | 16% | 7%[46.1 µM] | 0% | 1.8% | 4% | -6% | 5%
CN1C(=O)/C(=C/c2coc3ccc(O)cc3c2=O)SC1=S | . | 37%[activator] | . | 0% | . | . | -1% | -13%
O=C(Cn1cnc2ccccc2c1=O)Nc1ccccc1N1CCOCC1 | . | -3% | 2%[46.1 µM] | 2% | . | -15% | . | 6%
CC(C)C(C)NC(=O)CN1C(=O)NC(c2ccccc2)(c2ccccc2)C1=O (stereo unspecified) | . | 2% | -22%[46.1 µM] | 3% | . | 7%[46.1 µM] | 18% | -2%
COc1cc(C(C)=O)ccc1OCC(=O)Nc1ccccc1N1CCCC1 | . | ? | -8% | -7% | . | -9% | -40% | 4%
CCOC(=O)Cc1cc(=O)n2[nH]c(-c3ccc(Cl)cc3)cc2n1 | 13% | . | 13% | -8% | 2.8% | 14% | 6% | 19%
Cc1ccc(N(CC(=O)NCC2CCCO2)C(=O)Cn2nnc(-c3cccs3)n2)cc1 (stereo unspecified) | . | -14% | 2%[46.1 µM] | 1% | . | 0% | 2% | ?
O=C1CSC(=S)N1Nc1ccccc1 | . | 1% | -2%[46.1 µM] | . | . | 9%[46.1 µM] | . | 10%
O=C(c1n[nH]c(=O)c2ccccc12)N1CCN(c2ccccc2Cl)CC1 | -10% | ? | ? | 2% | -2.0% | 1% | -3% | 9%
CCOc1cccc(C(=O)N(Cc2ccc(F)cc2)Cc2ccco2)c1 | -9% | -13% | -20%[46.1 µM] | . | -3.6% | ? | . | .
CC1C(=O)N2CCCc3cc(S(=O)(=O)N4CCCCC4)cc1c32 (stereo unspecified) | . | 8% | -8% | 1% | . | ? | . | -11%
Cc1ccc(-c2nnc(SCC(=O)NC3CC3)o2)cc1 | . | 17% | ? | -2% | . | 17%[46.1 µM] | -3% | 2%
O=C(NCC1CCCO1)C1CCN(CC2CCCCC2)CC1 (stereo unspecified) | 2% | -4% | 2% | 11% | 2.1% | 13% | -2% | -9%

Next section.
Molecule | Cruzain inh noDet | 2A StopGo | Marburg entry inh | SARS PLpro yeast | Cruzain Triton | Lassa entry inh | NS1 inh | RE007 growth inh
COC(=O)c1ccccc1CC1SC(N)=NC1=O (stereo unspecified) | . | 2% | 25%[46.1 µM] | -1% | . | . | -2% | -6%
CC(C)CC(=O)NC(=S)Nc1ccc(Cl)cn1 | -8% | 18% | ? | -21% | -0.1% | 19% | 10% | -17%
CC(CCc1ccccc1)NC(=O)CCN1N=C(c2ccccc2)CCC1=O (stereo unspecified) | . | -3% | -10%[46.1 µM] | 0% | . | -23% | . | 1%
O=C(Nc1cn(-c2ccccc2)nc1-c1ccc(F)cc1)c1ccccc1 | 1% | 7% | 4% | -4% | -8.3% | 12% | 1% | 0%
CC(C)(C)c1ccc(C(=O)NCCOc2ccccc2F)cc1 | . | 35µM* | ? | -1% | . | ? | 0% | -20%
COc1cccc(-n2c(C)cc(/C=C3\C(=N)N4N=C(CC(=O)N5CCOCC5)SC4=NC3=O)c2C)c1 | . | -7% | . | 2% | . | . | 2% | -9%
COCCOC(=O)C(CC(=O)O)NCc1ccco1 (stereo unspecified) | . | -9% | . | -1% | . | . | -5% | 4%
